Screens as filed in PubChem.
Vaccinia inh = Vaccinia orthopox stage-specific inhibition; Vaccinia-infected cells, mCherry/Venus stage reporter fluorescence; stronger effect = lower value; some inactives read as strong as hits; activity change (mCherry), % (no concentration beside the values); 0.01% of 89,000 active; AID 1053133;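 active = mCherry past -33% and 40 or more points under the early reporter, replicates agreeing; inconclusive = past -33% without that gap or agreement; tested in A549 cells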;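 also: scaled between vehicle wells and reference inhibitor wells; 23 nL library stock went into each well; one replicate is shown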
Vaccinia inh Venus = second read-out of Vaccinia inh, no call of its own (marks repeat the call); activity change (Venus), %; measured here: Venus reporter, other viral stage;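 negative = less Venus signal; first of two replicates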
Numbers without * were called inactive; ? = inconclusive; / = no result given.

SMILES | Vaccinia inh | Vaccinia inh Venus
CC(=O)N(C)C[C@H]1Oc2cc(-c3ccc(F)cc3)ccc2S(=O)(=O)N([C@H](C)CO)C[C@H]1C | 6 | 3
C[C@H]1CN([C@@H](C)CO)C(=O)c2cc(C#CC3CCCCC3)cnc2O[C@H]1CN(C)S(=O)(=O)c1ccccc1 | ? | /
CO[C@H]1CN(C)C(=O)c2ccc(NC(=O)C3CCCCC3)cc2OC[C@H](C)N(Cc2cccnc2)C[C@H]1C | -10 | -4
COc1ccc(NC(=O)N(C)C[C@@H]2Oc3ccc(NC(=O)Nc4ccc(F)cc4)cc3C(=O)N([C@H](C)CO)C[C@@H]2C)cc1 | 9 | 2
C[C@H](CO)N1C[C@H](C)[C@H](CN(C)C(=O)c2ccc(F)cc2)OCc2ccccc2-c2c(n(C)c3ccccc23)C1=O | -23 | -27
Cc1noc(C)c1S(=O)(=O)Nc1cccc2c1O[C@@H](CN(C)S(=O)(=O)c1cccs1)[C@@H](C)CN([C@H](C)CO)C2=O | 19 | 14
C[C@@H]1CCCCO[C@H](CN(C)S(=O)(=O)c2cn(C)cn2)[C@@H](C)CN([C@H](C)CO)C(=O)c2cc(NC(=O)Nc3cccc4ccccc34)ccc2O1 | 35 | 10
C/C=C/c1ccc([C@@H]2[C@@H](CO)N(C(=O)CN(C)C)C23CN(C(=O)C2CCCC2)C3)cc1 | -16 | 0
CC(=O)n1cc([C@H]2C=C(C(=O)N3CCN(Cc4ccccc4)CC3)O[C@@H](OCCCCO)C2)c2ccccc21 | 2 | 13
COc1ccccc1-c1ccc2c(c1)O[C@H](CN(C)Cc1ccc3c(c1)OCO3)[C@H](C)CN([C@H](C)CO)S2(=O)=O | ? | /
O=C(C[C@@H]1C=C[C@@H](NS(=O)(=O)c2ccccc2)[C@@H](CO)O1)N1CCc2ccccc2C1 | 2 | 3
N#C[C@@H]1[C@H](c2ccc(C#CC3CCCCC3)cc2)[C@@H](CO)N1C(=O)c1cccc(F)c1 | -23 | -19
C[C@@H]1CCCCO[C@H](CN(C)C(=O)NC2CCCCC2)[C@@H](C)CN([C@H](C)CO)C(=O)c2cc(NC(=O)C3CCCCC3)ccc2O1 | -8 | -6
COc1ccc2c3c(n(C)c2c1)[C@H](CO)N(S(=O)(=O)c1ccc(C)cc1)CC31CCN(C(=O)c2ccccn2)CC1 | 7 | 8
C[C@@H]1CCCCO[C@H](CN(C)S(=O)(=O)c2cccs2)[C@H](C)CN([C@H](C)CO)C(=O)c2cc(NC(=O)C3CCCCC3)ccc2O1 | -29 | -28

Single entries from the list:
CC(=O)n1cc([C@H]2C=C(C(=O)N3CCN(Cc4ccccc4)CC3)O[C@@H](OCCCCO)C2)c2ccccc21 in Vaccinia inh has 2
CC(=O)N(C)C[C@H]1Oc2cc(-c3ccc(F)cc3)ccc2S(=O)(=O)N([C@H](C)CO)C[C@H]1C in Vaccinia inh has 6
N#C[C@@H]1[C@H](c2ccc(C#CC3CCCCC3)cc2)[C@@H](CO)N1C(=O)c1cccc(F)c1 in Vaccinia inh Venus has -19
C/C=C/c1ccc([C@@H]2[C@@H](CO)N(C(=O)CN(C)C)C23CN(C(=O)C2CCCC2)C3)cc1 in Vaccinia inh has -16

Next part
SMILES | Vaccinia inh | Vaccinia inh Venus
CC(C)NC(=O)Nc1cccc2c1O[C@@H](CN(C)S(=O)(=O)c1ccccc1)[C@@H](C)CN([C@@H](C)CO)C2=O | 2 | 4
CCCN1[C@@H]2Cn3c(ccc(-c4ccccc4)c3=O)[C@H]1[C@@H](C(=O)NCCCN1CCOCC1)[C@@H]2CO | 23 | 15
Cc1noc(C)c1S(=O)(=O)N(C)C[C@H]1Oc2ccc(NC(=O)NC(C)C)cc2CC(=O)N([C@H](C)CO)C[C@@H]1C | 18 | 17
CN1CCN(C(=O)C[C@@H]2CC[C@H]3[C@H](COc4ccc(NC(=O)c5cscn5)cc4C(=O)N3C)O2)CC1 | 8 | 19
C[C@H](CO)N1C[C@H](C)[C@H](CN(C)C(=O)Nc2ccc(C(F)(F)F)cc2)Oc2ccc(NC(=O)CCN3CCOCC3)cc2CC1=O | 5 | 4
CC(C)CC#Cc1cnc2c(c1)C(=O)N([C@H](C)CO)C[C@@H](C)[C@@H](CN(C)Cc1ccccc1)O2 | -22 | -20
Cc1ccc(-c2cnc3c(c2)C(=O)N([C@@H](C)CO)C[C@@H](C)[C@@H](CN(C)C(=O)Cc2cccnc2)O3)cc1 | -28 | -24
O=C(c1cccc(F)c1)N1CCCCN2[C@@H](CO)[C@H](c3ccc(-c4ccncc4)cc3)[C@@H]2C1 | 21 | -5
COc1ccccc1-c1ccc([C@@H]2[C@@H](C#N)N(C(=O)C3CCC3)[C@@H]2CO)cc1 | -1 | -2
Cc1noc(C)c1S(=O)(=O)Nc1cccc2c1O[C@H](CN(C)Cc1ccc(C(=O)O)cc1)[C@@H](C)CN([C@@H](C)CO)C2=O | 5 | 12
CCC(=O)N1C[C@@H](C)[C@@H](OC)CN(C)C(=O)c2ccc(NC(=O)c3ccc(F)cc3)cc2OC[C@@H]1C | -12 | -8
COc1ccccc1C(=O)Nc1ccc2c(c1)C(=O)N(C)C[C@H](OC)[C@@H](C)CN(C)[C@@H](C)CO2 | 2 | -5
COc1ccc(S(=O)(=O)N(C)C[C@H]2Oc3c(NC(=O)c4ccc(-c5nccs5)cc4)cccc3C(=O)N([C@@H](C)CO)C[C@H]2C)cc1 | 12 | 11
C[C@@H]1CN([C@H](C)CO)C(=O)c2cccc(NS(=O)(=O)c3ccc(F)cc3)c2O[C@@H]1CN(C)Cc1ccc(C(F)(F)F)cc1 | -26 | -20
CC(C)c1cn(CC[C@@H]2CC[C@H](NS(=O)(=O)c3ccccc3)[C@@H](CO)O2)nn1 | 0 | 6
C/C=C/c1ccc2c(c1)O[C@H](CN(C)Cc1cncnc1)[C@H](C)CN([C@@H](C)CO)S2(=O)=O | -9 | -2
COc1ccc2c3c([nH]c2c1)[C@@H](CO)N(C(=O)C1CCOCC1)CC31CN(Cc2nccs2)C1 | 23 | 9
C[C@@H]1CN([C@H](C)CO)C(=O)c2cc(NS(=O)(=O)c3cn(C)cn3)ccc2O[C@@H](C)CCCCO[C@@H]1CN(C)C(=O)CCC(F)(F)F | 18 | 9
COc1ccccc1C(=O)Nc1ccc2c(c1)C(=O)N(C)[C@@H]1CC[C@@H](CC(=O)NCc3ccc(Cl)c(Cl)c3)O[C@H]1CO2 | 32 | 11
CCCC(=O)Nc1ccc2c(c1)OC[C@@H](C)N(Cc1cccc(F)c1)C[C@@H](C)[C@@H](OC)CN(C)C2=O | -15 | -8
COc1ccc(S(=O)(=O)Nc2ccc3c(c2)C(=O)N([C@H](C)CO)C[C@@H](C)[C@H](CN(C)Cc2ccc(C(=O)O)cc2)O3)cc1 | 20 | 15
CN1CCN(C(=O)C[C@@H]2CC[C@H]3[C@H](COc4ccc(NC(=O)C5CC5)cc4C(=O)N3C)O2)CC1 | 6 | 9
CCCN(C)C[C@H]1Oc2ncc(-c3cccc(C#N)c3)cc2C(=O)N([C@H](C)CO)C[C@@H]1C | 7 | 6
COCCNC[C@@H]1[C@@H](c2ccccc2)[C@@H](CO)N1c1nc(C)c(C)s1 | -7 | -2
O=C(Cc1ccccn1)NCC[C@H]1CC[C@@H](NS(=O)(=O)c2ccccc2)[C@H](CO)O1 | 20 | 10
CO[C@@H]1CN(C)C(=O)c2cc(NC(=O)c3cc(C)on3)ccc2OC[C@H](C)N(C(C)=O)C[C@@H]1C | 10 | 0
COc1ccc(CN(C)C[C@@H]2OCCCC[C@H](C)Oc3ccc(NS(=O)(=O)c4ccc(F)cc4)cc3C(=O)N([C@H](C)CO)C[C@@H]2C)cc1 | ? | /
CN1c2ccc(-c3ccccc3)cc2[C@H]2[C@H](CCN2C(=O)CC2CC2)[C@@H]1CO | 6 | 5
CN1[C@@H]2CNc3ccccc3[C@@H]2[C@@H]1CO | 9 | 7
CC1C=NC(S(=O)(=O)N2CC[C@H]3[C@@H](CO)N(C)c4ccc(-c5cccc(F)c5)cc4[C@H]32)=N1 (stereo partly drawn) | 10 | 4

3 structures out of the list, sorted by count of non-hydrogen atoms, ascending.
SMILES | Vaccinia inh | Vaccinia inh Venus
CCCN(C)C[C@H]1Oc2ncc(-c3cccc(C#N)c3)cc2C(=O)N([C@H](C)CO)C[C@@H]1C | 7 | 6
CCCC(=O)Nc1ccc2c(c1)OC[C@@H](C)N(Cc1cccc(F)c1)C[C@@H](C)[C@@H](OC)CN(C)C2=O | -15 | -8
C[C@@H]1CN([C@H](C)CO)C(=O)c2cc(NS(=O)(=O)c3cn(C)cn3)ccc2O[C@@H](C)CCCCO[C@@H]1CN(C)C(=O)CCC(F)(F)F | 18 | 9

2 consecutive entries already listed:
SMILES | Vaccinia inh | Vaccinia inh Venus
CN1[C@@H]2CNc3ccccc3[C@@H]2[C@@H]1CO | 9 | 7
CC1C=NC(S(=O)(=O)N2CC[C@H]3[C@@H](CO)N(C)c4ccc(-c5cccc(F)c5)cc4[C@H]32)=N1 (stereo partly drawn) | 10 | 4

The main list resumes, repeating the two entries before the break.
SMILES | Vaccinia inh | Vaccinia inh Venus
CN1[C@@H]2CNc3ccccc3[C@@H]2[C@@H]1CO | 9 | 7
CC1C=NC(S(=O)(=O)N2CC[C@H]3[C@@H](CO)N(C)c4ccc(-c5cccc(F)c5)cc4[C@H]32)=N1 (stereo partly drawn) | 10 | 4
C[C@@H]1CN([C@@H](C)CO)C(=O)c2cc(C#CCc3ccccc3)cnc2O[C@H]1CN(C)CC1CCCC1 | ? | /
COc1ccc(C#Cc2cnc3c(c2)C(=O)N([C@@H](C)CO)C[C@H](C)[C@@H](CN(C)C(=O)CN(C)C)O3)cc1 | -3 | 7
CCCN(C)C[C@H]1Oc2cc(-c3ccccc3OC)ccc2S(=O)(=O)N([C@@H](C)CO)C[C@H]1C | -12 | -14
O=C([C@@H]1[C@@H](CO)[C@@H]2Cn3c(ccc(-c4cncnc4)c3=O)[C@@H]2N1CC1CC1)N1CCCCC1 | -3 | 1
C[C@@H]1CN([C@@H](C)CO)C(=O)c2cccc(NC(=O)C3CC3)c2O[C@H]1CN(C)Cc1ccc(Oc2ccccc2)cc1 | -30 | -20
CO[C@H]1CC[C@H]2CCN(C)C(=O)[C@H](C)N(C)C(=O)c3cc(C#N)ccc3OC[C@@H]1O2 | -1 | -7
C[C@H](CO)N1C[C@H](C)[C@@H](CN(C)C(=O)Nc2ccc(C(F)(F)F)cc2)Oc2ccc(NC(=O)c3ccncc3)cc2C1=O | 20 | 6
O=C(C[C@@H]1CC[C@H](NS(=O)(=O)c2ccc(F)cc2)[C@H](CO)O1)N1CCc2ccccc2C1 | 4 | 8
C[C@@H]1CCCCO[C@@H](CN(C)C(=O)c2ccccc2)[C@@H](C)CN([C@H](C)CO)C(=O)c2cc(NC(=O)C3CCCCC3)ccc2O1 | 18 | 0
CCO[C@@H]1OC(C(=O)N2CCN(Cc3ccc4c(c3)OCO4)CC2)=C[C@H](C)[C@H]1CCCO | 12 | 2
CN1C(=O)c2cc(NC(=O)C3CCCCC3)ccc2OC[C@H]2O[C@@H](CC(=O)NCC3CCCCC3)CC[C@H]21 | -11 | -18
O=C(C[C@H]1C[C@H]2c3cc(NC(=O)C4CCC4)ccc3O[C@H]2[C@H](CO)O1)NCC1CC1 | 3 | -5
C[C@H](CO)N1C[C@H](C)[C@@H](CN(C)C(=O)Nc2ccc(C(F)(F)F)cc2)OCCCC[C@H](C)Oc2ccc(NS(=O)(=O)c3ccc(F)cc3)cc2C1=O | -6 | -9
CC(C)C#Cc1ccc([C@H]2[C@@H](CO)N3C(=O)CN(C(=O)C4CCCCC4)C[C@H]23)cc1 | -21 | -26
O=C(N[C@@H]1CC[C@@H](CCn2cc(-c3ccccc3)nn2)O[C@@H]1CO)c1ccccc1F | 0 | 3
CCCc1cn(CC[C@H]2CC[C@@H](NC(=O)Cc3cccnc3)[C@H](CO)O2)nn1 | 18 | 18
O=C(Nc1cccc(F)c1)N1C[C@@H]2[C@H](c3ccccc31)[C@H](CO)N2C(=O)c1ccccn1 | 8 | 7
C[C@@H]1CCCCO[C@H](CN(C)S(=O)(=O)c2cn(C)cn2)[C@H](C)CN([C@@H](C)CO)C(=O)c2cc(NC(=O)NC3CCCCC3)ccc2O1 | 17 | 7
C[C@H](CO)N1C[C@H](C)[C@@H](CN(C)S(=O)(=O)c2ccc(C#N)cc2)OCc2ccccc2-c2c(n(C)c3ccccc23)C1=O | -33 | -33
O=C(Cc1ccncc1)NCC[C@@H]1CC[C@@H](NC(=O)C2CCCC2)[C@H](CO)O1 | -11 | 3
Cc1noc(C)c1S(=O)(=O)Nc1ccc2c(c1)C(=O)N([C@@H](C)CO)C[C@H](C)[C@@H](CN(C)S(=O)(=O)c1ccc(F)cc1)OCCCC[C@H](C)O2 | ? | /
C[C@@H]1CN([C@H](C)CO)C(=O)CCCn2cc(nn2)CO[C@H]1CN(C)Cc1cccnc1 | 5 | 1
CC=Cc1ccc2n(c1=O)C[C@H]1[C@H](CO)[C@@H](C(=O)NCC)[C@@H]2N1CCC(F)(F)F (mixture of isomers) | 4 | 6
CNC[C@H]1Oc2ccc(NC(=O)Nc3ccc(OC)cc3)cc2CC(=O)N([C@@H](C)CO)C[C@@H]1C | 4 | -2
C[C@H]1CN([C@@H](C)CO)C(=O)Cc2cc(NC(=O)Nc3ccc(C(F)(F)F)cc3)ccc2O[C@H]1CN(C)Cc1ccc2c(c1)OCO2 | ? | /
C[C@@H]1CN([C@@H](C)CO)C(=O)c2cccc(NS(=O)(=O)c3ccc(Cl)cc3)c2O[C@@H]1CN(C)C(=O)Nc1ccc2c(c1)OCO2 | -12 | -14
C[C@@H]1CCCCO[C@H](CN(C)C(=O)Cc2ccccc2)[C@@H](C)CN([C@H](C)CO)C(=O)c2cc(NS(=O)(=O)c3ccc(Cl)cc3)ccc2O1 | 3 | -11
CCCC#Cc1cnc2c(c1)C(=O)N([C@@H](C)CO)C[C@H](C)[C@@H](CN(C)C(=O)Nc1c(C)noc1C)O2 | 24 | 12
N#C[C@H]1[C@@H](c2ccc(C3=CCCCC3)cc2)[C@@H](CO)N1C(=O)c1ccccn1 | 3 | 5
C/C=C/c1cnc2c(c1)C(=O)N([C@@H](C)CO)C[C@@H](C)[C@H](CN(C)C(=O)Cc1cccnc1)O2 | 15 | 9

Only part of the results is shown. The share of hits here may be higher or lower than overall.
